TAR Tat displ: HIV-1 TAR-Tat binding disruption. HIV-1 TAR RNA, Tat peptide displacement FRET; hits give high values. z-score (test concentration not listed). 100,000 compounds, 0.6% hits. AID 1259389;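 note: score is relative to mean and SD of negative controls; some compounds called inactive have numbers as strong as hits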
CDC25B-CDK2 inh: human CDC25B-CDK2/CyclinA binding inhibition; P30305+P24941; HTRF CDC25B-CDK2/CyclinA binding, anti-His/anti-Flag; hits give high values; z-score (no concentration beside the values); 94,000 compounds, 0.72% hits; AID 1259370;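 note: score is relative to mean and SD of negative controls; strong numbers were not always called active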
* marks the source's active call; other numbers are inactive results; · = not tested or not shown.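 Rule for the calls: active = z-score from 3 up in half or more of its runs; inactive = the rest.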

SMILES,TAR Tat displ,CDC25B-CDK2 inh
COc1ccc(-c2noc(-c3nnn(-c4ccc(Br)cc4)c3C)n2)cc1OC,0.53,·
Cc1ccc(S(=O)(=O)n2ccn(C(=O)C(C)C)c2=O)cc1,0.09,·
NS(=O)(=O)c1ccc(NC(=O)Cn2cnc(S(=O)(=O)N3CCc4ccccc43)c2)cc1,1.1,·
CC(=O)Nc1ccc(N2C(=O)CC(NCCN3CCOCC3)C2=O)cc1 (stereo not drawn),·,-1.6
COc1ccc(-c2nc3scc(CCNS(=O)(=O)c4ccc5c(c4)OCCO5)n3n2)cc1,1.1,·
O=C(CCCc1nc(-c2cccnc2)no1)Nc1ccccn1,1.6,-1.3
c1ccc(-c2noc(-c3ccc4c(c3)OCO4)n2)cc1,1.7,-2.4
Cc1nc(N2CCCC2)c2c(C(=O)N3CCN(Cc4ccc5c(c4)OCO5)CC3)c(C)oc2n1,0.9,·
Cc1nnc(NC(=O)c2ccc(S(=O)(=O)N(C)C)cc2)o1,·,0.58
O=C(CSc1ncc(S(=O)(=O)c2ccccc2)c(=O)[nH]1)Nc1ccc(F)cc1,1.5,-1.3
O=C(Cn1ncc2ccsc2c1=O)N1CCN(c2ccc(F)cc2)CC1,-0.28,-1.8
CCOC(=O)C(C)NC(=O)c1sc2nc3n(c(=O)c2c1C)CCCCC3 (stereo not drawn),1.6,·
COc1cc(CNCCc2c[nH]c3ccccc23)ccc1Oc1nnnn1-c1ccccc1,0.24,·
COc1ccc(CCC(=O)c2c(O)cc(O[C@@H]3O[C@H](CO)C(O)[C@H](O)C3O[C@@H]3O[C@@H](C)[C@H](O)[C@@H](O)[C@H]3O)cc2O)cc1O (stereo partly drawn),0.93,·
N#CC1=C(N)Oc2cc3c(cc2C1c1ccc(Cl)cc1)OCO3 (stereo not drawn),·,-1.1
O=C(c1ccc2c(c1)nc1n2CCCCC1)N1CCN(c2ccccn2)CC1,0.69,·
O=C(NCc1ccccc1F)c1cnc2sccn2c1=O,1,·
CN(C)c1ncnc2c1[nH]c1ccccc12,1.9,-0.5
Cc1ccc(C)c(S(=O)(=O)N(CCS(=O)(=O)N2CCNCC2)Cc2ccc(F)cc2)c1,0.37,·
Cc1cc(C)cc(-n2ccnc(SCC(=O)c3ccccc3)c2=O)c1,0.01,·
CCCCNc1cc(C(=O)O)cc(S(N)(=O)=O)c1Oc1ccccc1,1.7,-0.45
CCCCc1nn2c(=O)cc(CSCC(=O)Nc3cc(C)cc(C)c3)nc2s1,-0.35,·
Cc1onc(C(=O)Nc2ccc(F)c(Cl)c2)c1[N+](=O)[O-],2.9,-0.66
Cc1cc(-c2ccco2)n(CC(=O)NCCN(C)C)n1,-0.98,-0.67
O=C(NCc1ccco1)c1ccc2nc3ccsc3c(=O)n2c1,·,0.77
C=C(C)[C@@H]1CC[C@]2(CO)CC[C@]3(C)[C@H](CC[C@@H]4[C@@]5(C)CC[C@H](O)C(C)(C)[C@@H]5CC[C@]43C)[C@@H]12,2.1,·
Cn1c(=O)c2c(nc(Sc3ncnn3CC(=O)N3CCOCC3)n2C)n(C)c1=O,·,-0.59
Cc1cccc2nc(COc3ccc(Cl)cc3)cn12,-0.91,-1.9
CCOC(=O)C1=C(C)Nc2nc(SCC(C)C)nn2C1c1ccc(Br)cc1 (stereo not drawn),0.66,0.39
Cc1cccc(CSc2nc3c(c(=O)[nH]2)C(c2cc(C)ccc2C)CC(=O)N3)c1 (stereo not drawn),0.54,0.55
O=C1Nc2ccc(Br)cc2/C1=C/C(=O)c1ccc2c(c1)OCO2,·,1.4
Cc1ccccc1C(=O)Nc1sc2c(c1C(=O)N1CCCC1)CCC2,·,-0.29
COC(=O)c1sc2cnccc2c1N,-0.62,-2
COC(=O)CN1C(=O)CSc2ccc(S(=O)(=O)Nc3ccc(Cl)cc3)cc21,0.35,·
CSc1cccc(NC(=O)Cn2ncc3c2-c2ccccc2OC3)c1,-0.37,-1.1
O=C1CCCc2cc(S(=O)(=O)NC3CCCCC3)ccc2N1,1,·
CC(C)CNc1ncnc2c1sc1nc(-c3ccco3)c3c(c12)CC(C)(C)OC3,-1.9,0.37
CC1Cc2cc(S(=O)(=O)CCC(=O)Nc3cccc(Cl)c3)ccc2N1C(=O)C1CC1 (stereo not drawn),-0.38,·
COCCCN(Cc1cccs1)S(=O)(=O)c1cc(-c2cc(C)no2)ccc1C(C)C,-1.2,·
CCOC(=O)C1=NNC2C(=O)N(c3ccc(Cl)cc3)C(=O)C12 (stereo not drawn),-0.43,-1.2
Cc1ccc(N2NC(=O)C(C)(C)C2=O)cc1,-0.13,-1.4
c1ccc(CSc2nnc(-c3ccco3)c(-c3ccco3)n2)cc1,8.8*,0.21
Cc1c(NC(=O)CCCc2nc(-c3cccs3)no2)c(=O)n(-c2ccccc2)n1C,0.06,-0.47
Cc1cc2oc3c(c(=O)c2cc1C)C(c1ccccc1F)N(CCCN1CCOCC1)C3=O (stereo not drawn),-0.06,-0.83
COc1ccc(-c2noc(CNS(=O)(=O)c3ccc(Br)cc3)n2)cc1OC,2.4,-1.7
CC(=O)Nc1nnc(SCc2cc(=O)n3nc(C)sc3n2)s1,-0.53,·
COC1=C[C@@H](C)[C@@H]2C[C@H]3OC(=O)C[C@H]4C(C)=C(OC)C(=O)[C@H]([C@@]2(C)C1=O)[C@@]34C,0.2,·
O=c1[nH]c(-c2ccccc2O)nc2c1Cc1cc(Br)ccc1O2,2.1,-0.58
COc1ccc(C2=C(C)C(=NCCN3CCOCC3)NS2(=O)=O)cc1,-0.24,-1.1
Cc1onc(-c2ccccc2)c1NC(=O)NN(C)c1ccc(C(F)(F)F)cc1[N+](=O)[O-],·,-1.3

The list goes on.
SMILES,TAR Tat displ,CDC25B-CDK2 inh
CCOc1ccsc1C(=O)NNC(=O)c1ccc([N+](=O)[O-])cc1,·,-0.8
Cn1c2ccccc2c2cnn(CC(=O)N3CCc4ccccc43)c(=O)c21,0.75,-3.1
O=C(Nc1cccc(Cl)c1)Nc1ccc(CSc2ccc(Cl)cc2)o1,·,0.18
Clc1ccccc1Cc1cn2cc(-c3ccccc3)nc2s1,0.21,0.46
CC1CCN(S(=O)(=O)N2CCCC(C(=O)N3CCc4ccccc43)C2)CC1 (stereo not drawn),-0.56,·
COC(OC)c1ccnc(SCc2ccc(Cl)cc2Cl)n1,·,-0.01
Clc1ccc(CCNc2nc3ccc(Cl)cc3n3cnnc23)cc1,-2,-6.5
COC(=O)c1[nH]c2ccccc2c1Sc1ccccc1,-0.27,-3.7
CCC(=O)N1c2ccc(S(=O)(=O)NCC3COc4ccccc4O3)cc2CC1C (stereo not drawn),1.8,·
Clc1cccc(Nc2nnc(Cc3cccnc3)c3ccccc23)c1,1.5,-0.39

3 entries out of the list, ordered by number of heavy atoms, ascending:
SMILES,TAR Tat displ,CDC25B-CDK2 inh
COC(=O)c1[nH]c2ccccc2c1Sc1ccccc1,-0.27,-3.7
COC(OC)c1ccnc(SCc2ccc(Cl)cc2Cl)n1,·,-0.01
CCOc1ccsc1C(=O)NNC(=O)c1ccc([N+](=O)[O-])cc1,·,-0.8

(continued)
SMILES,TAR Tat displ,CDC25B-CDK2 inh
Cc1n[nH]c(C)c1Cc1cc(C(=O)NCCC2=CCCCC2)sc1N1CCOCC1,-0.28,-7
O=C1OC(N2CCC(Cc3ccccc3)CC2)c2ccccc21 (stereo not drawn),·,0.42
O=C(NCc1cccnc1)c1nn2c(c1Br)NC(c1ccccc1)CC2C(F)(F)F (stereo not drawn),0.67,-1.6
Cc1ccc(S(=O)(=O)NC(C)c2nc(-c3ccccc3)no2)cc1 (stereo not drawn),0.22,-0.72
CC1Cc2cc(S(=O)(=O)Nc3ccccn3)ccc2N1C(=O)C1CC1 (stereo not drawn),1.7,·
Cc1ccc2nc(C)c(Cc3nnc(SCC(=O)NCC4CCCO4)n3C)c(=O)n2c1 (stereo not drawn),0.14,-1.9
COC(=O)c1ccccc1NC(=O)c1cc(OC(C)=O)cc(C(=O)Nc2ccccc2C(=O)OC)c1,·,-4
Cc1cc(CSCC(=O)N2CCCc3ccccc32)cs1,-1.3,·
Cc1oc(C)c2c(=O)cc(-c3ccc4c(c3)OCO4)cc(OC(=O)c3ccco3)c12,-3.6,-1.9
COc1cccc(N2CCN(c3ncnc4onc(C)c34)CC2)c1,2.1,·

A different layout for part of the listing above:
Below each compound – TAR Tat displ	CDC25B-CDK2 inh
O=C1OC(N2CCC(Cc3ccccc3)CC2)c2ccccc21 (stereo not drawn)
 : ·	0.42
O=C(NCc1cccnc1)c1nn2c(c1Br)NC(c1ccccc1)CC2C(F)(F)F (stereo not drawn)
 : 0.67	-1.6
Cc1ccc(S(=O)(=O)NC(C)c2nc(-c3ccccc3)no2)cc1 (stereo not drawn)
 : 0.22	-0.72

New compounds follow
SMILES,TAR Tat displ,CDC25B-CDK2 inh
Cc1cc(C)c(NC(=O)c2cc(C(=O)O)ccc2C(=O)O)c([N+](=O)[O-])c1,·,-0.05
CN(CC(=O)Nc1ccc(F)cc1F)S(=O)(=O)c1ccc2c(c1)CCC(=O)N2,·,-0.04
CSc1nnc2c(n1)OC(c1ccc(N(C)C)cc1)N(C(C)=O)c1ccccc1-2 (stereo not drawn),-0.48,-0.16
CC1CC(C)CN(S(=O)(=O)N2CCCC(C(=O)NCc3cccs3)C2)C1 (stereo not drawn),0.83,·
Cc1ccc(C)n1-c1nnc(N2CCCC(C(=O)NCCC(C)C)C2)s1 (stereo not drawn),-0.21,-1.6
Cc1cn(-c2ccccc2)nc1C(=O)Nc1nn(C)c2ccccc12,·,-0.32
Cc1noc(C)c1C(=O)Nc1nnc(-c2ccccc2)s1,·,-0.51
COc1ccc(-c2noc(-c3scc(-c4cccc(C)c4)c3-n3cccc3)n2)cc1OC,-6.8,10
O=S(=O)(c1ccccc1)c1cnc2ccc(F)cc2c1NCc1ccc(F)cc1,-0.21,1.6
Cn1c(Cc2csc(N)n2)nnc1SCC(=O)NC1CCCCC1,0.21,-0.42
COc1cccc(-c2nnc(-c3ccccc3NS(=O)(=O)c3ccc(Cl)cc3)o2)c1,·,-0.53
CCOCCc1nn2c(=O)cc(CSCC(=O)Nc3cc(C)cc(C)c3)nc2s1,0.24,·
CC(C)c1nn2c(=O)cc(COC(=O)c3ccccc3)nc2s1,0.21,·
CN1c2ccccc2-c2nc(SCC(=O)Nc3ccccc3F)ncc2S1(=O)=O,0.38,·
CCc1cccc(C)c1NC1=NS(=O)(=O)C(c2ccc(C)cc2)=C1C,-2.1,-1.2
O=C(Cn1ncc2c([nH]c3ccccc32)c1=O)N1CCN(c2ccc(F)cc2)CC1,0.66,·
Cc1nc2c(-c3ccc(F)cc3)c(C)nn2c(C)c1CC(=O)O,-0.78,-1.5
CCOC(=O)c1oc2ccc(S(=O)(=O)Nc3ccc4sc(NC(C)=O)nc4c3)cc2c1C,2.5,·
Cc1nn2c(=O)cc(COC(=O)c3cccs3)nc2s1,0.7,·
Cc1cc(C)nc(NC2=NCC(=O)N2c2ccc(F)cc2)n1,0.31,0.42
Cc1ccc2onc(CNC(=O)NCCC3=CCCCC3)c2c1,-0.77,·
O=C1CCCC2=C1C(c1cccs1)c1c(n[nH]c1-c1ccccc1)N2 (stereo not drawn),-2.6,-0.48
CC(C)NC(=O)CC(=O)Nc1ccc2nc3n(c(=O)c2c1)CCCCC3,·,-0.54
C1=C(c2ccc3c(c2)c2c4n3CCNC4CCC2)CCC1 (stereo not drawn),·,14*
O=C(Nc1ccc(Br)cc1F)c1cnn(-c2ccccc2)c1-n1cccc1,4.7,-1.1
N#Cc1ccc(CN=Cc2cc(Br)ccc2O)cc1,·,-2.4
CC1CCC(Nc2c(-c3ccc(C(C)C)cc3)c(=O)c2=O)CC1 (stereo not drawn),1.4,·
O=S(=O)(NCCS(=O)(=O)N1CCN(c2ccccc2F)CC1)c1ccc2c(c1)OCCO2,1.1,·
O=C(Nc1ccc(N2CCn3c(nc4ccccc43)C2)cc1)NC1CCCCC1,-4.2,-2.1
CC1(C)CC(NC(=O)CC(=O)NC2CC(C)(C)NC(C)(C)C2)CC(C)(C)N1,-0.2,-0.3
Cc1n[nH]c(=S)[nH]c1=S,·,-0.75
CCc1nnc2c(Nc3cc(OC)ccc3OC)nc3ccccc3n12,1.1,-1.3
S=c1nn[nH]n1-c1cc(Cl)c(Cl)cc1Cl,·,-1.3
O=C1C=CC(=O)C2C3c4ccccc4C(c4ccccc43)C12 (stereo not drawn),·,-0.49
CC(=O)N1c2ccc(S(=O)(=O)NCC3CCC(C(=O)N4CCc5ccccc54)CC3)cc2CC1C (stereo not drawn),0.48,·
O=C(NC1CCCCC1)C1CCCN1S(=O)(=O)c1ccc(-c2ccc(=O)[nH]n2)s1 (stereo not drawn),0.12,·
CC1CCN(C(=O)c2csc(S(=O)(=O)N3CCc4ccccc4C3)c2)CC1,0.95,·
C[C@@H]1CC[C@@]2(OC1)OC1CC3C4CC=C5C[C@@H](O)CC[C@]5(C)C4CC[C@]3(C)C1[C@@H]2C (stereo partly drawn),1.2,·

Screening results deposited in PubChem by Center for Chemical Genomics, University of Michigan.

Hits appear at their usual frequency. Share with any hit: about 0.87%.
